Screens from PubChem.
Polio RdRp inh – inhibitors of poliovirus RNA polymerase binding and polymerization; P03300; poliovirus polymerase elongation, fluorescence polarization; hits give low values; % elongation, % (compound at 16.7 µg/mL); 0.66% of 150,000 active; AID 588519; in the data active = % elongation below about 90%; note: some results filed as inactive read as strong as hits
Target sequence (P03300 1749-2209 limits assumed): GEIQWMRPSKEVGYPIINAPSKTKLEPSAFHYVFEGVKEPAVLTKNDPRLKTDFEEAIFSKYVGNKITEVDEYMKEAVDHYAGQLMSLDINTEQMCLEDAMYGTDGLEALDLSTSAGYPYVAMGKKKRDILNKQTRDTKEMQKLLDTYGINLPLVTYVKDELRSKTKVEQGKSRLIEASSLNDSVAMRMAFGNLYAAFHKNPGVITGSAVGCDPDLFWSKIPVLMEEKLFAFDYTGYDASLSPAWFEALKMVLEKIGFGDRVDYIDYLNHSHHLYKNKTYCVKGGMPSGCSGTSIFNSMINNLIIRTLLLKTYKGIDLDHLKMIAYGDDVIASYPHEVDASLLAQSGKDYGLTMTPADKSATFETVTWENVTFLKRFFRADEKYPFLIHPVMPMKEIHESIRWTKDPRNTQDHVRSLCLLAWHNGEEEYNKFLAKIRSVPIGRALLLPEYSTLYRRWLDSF
Polio RdRp inh intensity – further read-out of Polio RdRp inh, marked with its call; % elongation; measured here: total intensity read-out; formula for this scale not given here;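 total fluorescence in place of polarization; lower means less elongation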
An asterisk follows results filed as active. Some of the compounds tested (hit frequency here may not be typical).

Every second line gives: Polio RdRp inh | Polio RdRp inh intensity
CC(C)c1ccccc1NC(=O)C(Cc1c[nH]c2ccccc12)NC(=O)OC(C)(C)C (configuration not stated)
  110 | 101
Cc1c(Cl)cccc1-n1ncc(C(=O)NC2CCCC2)c1C1CCN(C(=O)OC(C)(C)C)CC1
  103 | 105
CC1CCN(C(=O)Cn2ncc3c4ccccc4n(Cc4ccc(Cl)cc4)c3c2=O)CC1
  144 | 163
O=C(NCC(c1cccnc1)N1CCN(Cc2ccccc2)CC1)C(=O)Nc1ccc(F)cc1 (configuration not stated)
  111 | 116
Cc1ccccc1OCC(=O)Nc1ccccc1C(=O)OCc1cc(=O)n2nc(C3CC3)sc2n1
  112 | 115
COc1cccc(CNC(=O)CN(C)S(=O)(=O)c2ccc3[nH]c4c(c3c2)CCCC4)c1
  110 | 115
COc1cccc(C(C(=O)NCc2ccccc2)N(C(=O)Cn2nnc3ccccc32)c2cccc(C(C)=O)c2)c1 (configuration not stated)
  108 | 112
Cc1c(Cl)cccc1NC(=O)c1cnc2sc(N3CCCC3)nn2c1=O
  111 | 109
COc1ccc(Nc2cc(C(=O)NCc3ccccc3)c3ccccc3n2)cc1
  104 | 107
COc1cccc(-c2cc(C(F)(F)F)n3nc(C)c(-c4ccccc4)c3n2)c1
  101 | 102
CCOc1ccc(CCNC(=O)CCc2c(C)nc3c(c(C)nn3-c3ccccc3)c2C)cc1OCC
  111 | 109
CC(C)CC(NC(=O)C1CCCCC1)C(=O)Nc1cccc(C(F)(F)F)c1 (configuration not stated)
  109 | 108
COc1ccc(-c2nnc(SCC(=O)N3CCc4ccccc43)o2)cc1OC
  110 | 113
COc1ccc(OC)c(NC(=O)c2ccc3nc(C(C)C)oc3c2)c1
  110 | 105
Cc1c2cnn(-c3ccccc3)c(=O)c2c(C)n1CC(=O)N1CCN(c2cccc(Cl)c2)CC1
  110 | 112
O=C(NCc1ccccc1)c1ccc2nc(CCc3ccccc3)oc2c1
  101 | 106
CCC(=O)N1CCc2cc(Br)cc(S(=O)(=O)CCC(=O)NCc3ccccc3)c21
  104 | 108
COc1cc(C2c3c(-c4ccccc4O)n[nH]c3C(=O)N2Cc2ccco2)ccc1OCC(C)C (configuration not stated)
  114 | 111
Cc1nn(S(=O)(=O)c2ccc(F)cc2)c(C)c1S(=O)(=O)N1CCCCC1
  109 | 107
O=C(Nc1cccc(C(F)(F)F)c1)C1CCCN1S(=O)(=O)c1cccc2nsnc12 (configuration not stated)
  107 | 109
COc1ccc(C2=NS(=O)(=O)N(C)C(C(=O)NC(C)c3ccccc3)=C2)cc1OC (configuration not stated)
  104 | 109
O=C(NCc1ccccc1)c1ccc2c(c1)N(Cc1ccc(F)cc1)CCS2
  109 | 108
CCCCC(=O)Nc1cccc(OCc2cc(=O)n3ccccc3n2)c1
  103 | 110
COc1ccccc1Cn1ccn(Cc2ccc(C)cc2)c(=O)c1=O
  104 | 99
COc1cccc(CC(=O)NCc2ccc3c(c2)CCN3C(C)=O)c1
  108 | 112
COC(=O)c1ccc(C(=O)OC)c(NC(=O)c2c(-c3ccccc3)noc2C)c1
  103 | 97
COc1cc2[nH]c(=O)n(-c3ccc(C)cc3)c(=O)c2cc1OC
  111 | 112
CCCc1cc(N2CCN(c3ccccc3)CC2)n2cnnc2n1
  106 | 109
CC(C(=O)Nc1ccccc1C(F)(F)F)n1nc(-c2ccccc2)c2c(c1=O)CCCC2 (configuration not stated)
  106 | 112
COc1cc(NC(=O)CSc2nccn2C)cc(OC)c1OC
  105 | 106
O=C(COc1ccccc1)Nc1nnc(SCc2cc(=O)c3ccccc3[nH]2)s1
  100 | 107
CC(C)CCn1c(SCc2ccc(F)cc2Cl)nc2ccsc2c1=O
  104 | 106
CCOc1ccccc1NC(=O)N(Cc1ccc(C)o1)C1CCN(C(C)=O)CC1
  114 | 113
Cc1ccc(-c2nn(-c3cccc([N+](=O)[O-])c3)c3c2cnc2ccc(F)cc23)cc1
  110 | 112
CCc1ccc(NC(=O)C2CCN(S(=O)(=O)c3c(C)noc3C)CC2)cc1
  116 | 119
COCCNC(=O)c1cccc(Nc2nc3ccccc3n3nnnc23)c1
  101 | 101
COc1ccccc1CNC(=O)CSc1nc2nc(C)c(Cc3ccccc3C)c(C)n2n1
  104 | 107
COc1ccc(N2CCN(C(=O)c3ccc(C)c(NC(=O)c4nsc5ccccc45)c3)CC2)cc1
  102 | 108
COc1ccc(CCN2CC(C(=O)NCCc3ccc(C)cc3)CC2=O)cc1OC (configuration not stated)
  112 | 108
O=C(CCn1c(=O)c2cccn2c2cccnc21)NCc1cccc(Br)c1
  106 | 107
CCOC(=O)c1ccc(NC(=O)CSc2cc(=O)n(CC)c3ccccc23)cc1
  102 | 98
CCOc1ccccc1NC1(c2ccccc2)C(=O)c2ccccc2C1=O
  102 | 100
Cc1cccn2cc(-c3cccc(NS(=O)(=O)c4ccc(Cl)c(Cl)c4)c3)nc12
  101 | 97
Cc1ccc2c(=O)cc(C(=O)N(Cc3ccc(N(C)C)cc3)C3CCS(=O)(=O)C3)oc2c1 (configuration not stated)
  111 | 109
CCOc1ccc(N(CC)C(=O)CSc2n[nH]c(-c3ccccc3)n2)cc1
  101 | 107
CN(C)c1ccc(C(=O)Nc2cccc(-c3nc4cccnc4s3)c2)cc1
  116 | 112
Cc1ccc(CNS(=O)(=O)c2cc3c(cc2C)NC(=O)CO3)cc1
  102 | 107
Cc1ccc(NC(=O)c2cc3nc(-c4ccccc4)cc(-c4ccccc4)n3n2)cc1
  104 | 103
Cc1ccccc1OCCn1cc(C(=O)C2CCCCC2)c2ccccc21
  109 | 107
CCOCCCn1c(=N)c(S(=O)(=O)c2ccc(C)cc2)cc2c(=O)n3cccc(C)c3nc21
  105 | 107
CCc1ccc2occ(CC(=O)Nc3c(C(=O)Nc4ccc(Cl)cc4)oc4ccccc34)c2c1
  119 | 115
O=C(O)CSc1nnc(-c2ccc(O)cc2)o1
  103 | 104
Cc1ccc(CNC(=O)Cn2cc(C(=O)c3ccc(Cl)cc3)c(=O)c3ccc(C)nc32)cc1
  108 | 107
COc1ccccc1CNC(=O)CCNS(=O)(=O)c1ccc2c(c1)oc(=O)n2C
  108 | 115
CCN(Cc1ccccc1)C(=O)C1CCN(S(=O)(=O)c2c(C)noc2/C=C/c2ccc(C)cc2)CC1
  108 | 108
CCc1cc(=O)oc2c(C)c3c(cc12)CN(CCc1ccccc1)CO3
  101 | 121
COc1ccc(-c2cn3c(n2)sc2cc(C(=O)NCCCN4CCCCC4)ccc23)cc1
  90* | 73*
Cc1ccc(C)c(N2CCN(C(=O)c3cc(S(=O)(=O)N4CCCC4)cn3C)CC2)c1
  113 | 115
CCOC(=O)c1cccc(NC(=O)[C@@H](c2ccccc2)N2Cc3ccccc3C2=O)c1
  104 | 108
Cc1ccccc1Nc1c(-c2cccnc2)nc2ccc(Cl)cn12
  114 | 114

A portion from the list above:
Every second line gives: Polio RdRp inh | Polio RdRp inh intensity
O=C(COc1ccccc1)Nc1nnc(SCc2cc(=O)c3ccccc3[nH]2)s1
  100 | 107
CC(C)CCn1c(SCc2ccc(F)cc2Cl)nc2ccsc2c1=O
  104 | 106
CCOc1ccccc1NC(=O)N(Cc1ccc(C)o1)C1CCN(C(C)=O)CC1
  114 | 113
Cc1ccc(-c2nn(-c3cccc([N+](=O)[O-])c3)c3c2cnc2ccc(F)cc23)cc1
  110 | 112
CCc1ccc(NC(=O)C2CCN(S(=O)(=O)c3c(C)noc3C)CC2)cc1
  116 | 119
COCCNC(=O)c1cccc(Nc2nc3ccccc3n3nnnc23)c1
  101 | 101
COc1ccccc1CNC(=O)CSc1nc2nc(C)c(Cc3ccccc3C)c(C)n2n1
  104 | 107
COc1ccc(N2CCN(C(=O)c3ccc(C)c(NC(=O)c4nsc5ccccc45)c3)CC2)cc1
  102 | 108
COc1ccc(CCN2CC(C(=O)NCCc3ccc(C)cc3)CC2=O)cc1OC (configuration not stated)
  112 | 108
O=C(CCn1c(=O)c2cccn2c2cccnc21)NCc1cccc(Br)c1
  106 | 107
CCOC(=O)c1ccc(NC(=O)CSc2cc(=O)n(CC)c3ccccc23)cc1
  102 | 98
CCOc1ccccc1NC1(c2ccccc2)C(=O)c2ccccc2C1=O
  102 | 100
Cc1cccn2cc(-c3cccc(NS(=O)(=O)c4ccc(Cl)c(Cl)c4)c3)nc12
  101 | 97

Further records follow.
Every second line gives: Polio RdRp inh | Polio RdRp inh intensity
COc1ccccc1CN1CCN(C2CCN(C(=O)Nc3ccccc3)CC2)C(=O)C1=O
  109 | 110
CCCCOc1ccc(C(C)NC(=O)c2cccc(Nc3nc4ccccc4n4nnnc34)c2)cc1 (configuration not stated)
  109 | 110
COC(=O)NNC(=O)C1CCC(C)CC1 (configuration not stated)
  100 | 100
Cc1nn(C(C)C(=O)Nc2ccc(C(C)C)cc2)c(=O)c2c1sc1ccccc12 (configuration not stated)
  108 | 108
Cc1c(C(=O)O)oc2c1-c1nn(Cc3ccccc3Cl)cc1CC2
  106 | 108
COc1ccc(/C=C\c2onc(C)c2S(=O)(=O)N2CCC(C(=O)Nc3ccc(C)c(F)c3)CC2)cc1
  108 | 110
CCOC(=O)c1ccc(N2C(=O)c3n[nH]c(-c4cccs4)c3C2c2ccc(OCC)cc2)cc1 (configuration not stated)
  104 | 104
CCn1c(=O)cc(OCC(=O)NCc2ccc(F)cc2Cl)c2ccccc21
  99 | 98
Cc1nn(-c2ccccc2)c2c1N(CCCC(=O)NCc1ccc(N(C)C)cc1)C(=O)CS2
  105 | 102
Cc1c(C(=O)Nc2cccc(C(F)(F)F)c2)oc2ccc(S(=O)(=O)N3CCC4(CC3)OCCO4)cc12
  104 | 104
Cc1ccc(CN(C(=O)Nc2cccc(Cl)c2)c2ccccn2)cc1
  104 | 107
CCOc1ccc(C(=O)c2oc3ccccc3c2NC(=O)Cc2coc3cc(C)cc(C)c23)cc1
  118 | 111
COc1cccc(N2CCN(C3C(=O)c4ccccc4N3C(C)=O)CC2)c1 (configuration not stated)
  113 | 106
O=C(COc1ccc(S(=O)(=O)NC2CCCCC2)cc1)Nc1ccc(C(F)(F)F)cc1
  103 | 105
O=C(CSc1nnc2scc(-c3ccc(Cl)cc3)n12)Nc1cccc(C(F)(F)F)c1
  106 | 109
Cc1ccc(CNC(=O)CN2C(=O)CSc3ccc(S(=O)(=O)N(C)C)cc32)cc1
  101 | 107
COc1ccc(OC)c(CCNC(=O)CN2C(=O)COc3ccc(S(=O)(=O)N4CCCCCC4)cc32)c1
  108 | 112
Cc1cc(Nc2cccc(Cl)c2)nc2ccc(NC(=O)c3cccc(N(C)C)c3)cc12
  109 | 100
CCSc1nc2ccccc2c(OCc2ccccc2Cl)c1C(=O)OC
  104 | 112
O=C(CN1c2ccc(Br)cc2-c2ccccc2S1(=O)=O)N1CCCCC1
  110 | 109
CCN(CC)S(=O)(=O)c1nnc(NC(=O)COc2ccc(Cl)cc2)s1
  106 | 96
COc1ccc(-c2nc3n(n2)C(c2ccccc2)C(C(=O)Nc2cccnc2)=C(C)N3)cc1 (configuration not stated)
  103 | 109
Nc1nnc(SCC(=O)Nc2ccc(Cl)cc2)s1
  103 | 106
CCC(=O)N1CCc2cc(S(=O)(=O)NCCC(=O)Nc3cc(C)ccc3OC)ccc21
  103 | 109
Cc1c(C(=O)Nc2nc(-c3ccc(F)cc3)ns2)oc2ccc(Cl)cc12
  104 | 112
CCOc1cc2sc(N3CCC(C(=O)Nc4ccccc4Cl)CC3)nc2cc1Br
  112 | 116
CCCCN1CC(c2nc3ccccc3n2CCCCOc2cccc(C)c2C)CC1=O (configuration not stated)
  108 | 106
COc1cc(NS(=O)(=O)c2ccc(NC(=O)c3ccc(C(C)=O)cc3)cc2)nc(OC)n1
  101 | 111
Cc1ccccc1OCC(=O)Nc1ccc(OCc2cc(=O)n3ccccc3n2)cc1
  109 | 116
Cc1ccc(N(CC(=O)Nc2ccc(Cl)cc2)S(=O)(=O)c2cccc3nonc23)cc1
  107 | 104

Remaining list, next part.
| structure | Polio RdRp inh | Polio RdRp inh intensity |
| --- | --- | --- |
| Cc1ccc(/C=C(\C#N)c2nc(-c3ccc(-c4ccccc4)cc3)cs2)cc1 | 105 | 106 |
| CCc1nc2nc(C)cc(Nc3cccc(C)c3C)n2n1 | 104 | 110 |
| COC(=O)c1scc(-c2ccccc2)c1S(=O)(=O)Nc1ccccc1 | 105 | 104 |
| O=C(c1ccc2c(c1)CCN2S(=O)(=O)c1ccc(Cl)cc1)N1CCN(c2ccccc2)CC1 | 100 | 106 |
| Cc1ccc(Nc2cc(-c3ccccc3)nc(C)n2)cc1 | 105 | 106 |
| COCCN1Cc2cccc(C(=O)Nc3ccc(Cl)cc3Cl)c2C1=O | 109 | 109 |
| COc1ccc(-c2cc(C)no2)cc1S(=O)(=O)Nc1cccc(C(F)(F)F)c1 | 108 | 109 |
| Cc1ccc(NC(=O)C2CCN(c3nn4c(=O)cc(C)nc4s3)CC2)cc1 | 109 | 110 |
| Cc1ccc2nc(-c3cc(NC(=O)c4ccc5c(c4)OCCO5)ccc3Cl)oc2c1 | 103 | 105 |
| Cc1ccc(NC(=O)N(Cc2ccc3c(c2)OCO3)C2CCN(Cc3ccccc3)CC2)cc1Cl | 120 | 118 |
| COc1ccc(-c2nc(CCNC(=O)c3cccs3)cs2)cc1OC | 112 | 95 |
| Cc1ccc2c(c1)Cc1c(nc(-c3ccc(F)cc3)nc1SCC(=O)N1CCCCC1)O2 | 100 | 105 |
